Cruzain Triton: qHTS Assay for Promiscuous and Specific Inhibitors of Cruzain (with detergent). Cruzipain (Trypanosoma cruzi), P25779. purified cruzain, Z-FR-AMC fluorescence, 0.01% Triton. Potency, µM, inactives show max response, negative = inhibition, actives largely listed as inhibitors. 0.43% of 200,000 active. AID 1478, 2009;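 also: plate controls were neutral wells for no effect and buffer without enzyme for full effect; nearly all actives have a fitted effect of over 40% in size; top concentration of the series not given in the record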
Target sequence (P25779 123-467 limits assumed): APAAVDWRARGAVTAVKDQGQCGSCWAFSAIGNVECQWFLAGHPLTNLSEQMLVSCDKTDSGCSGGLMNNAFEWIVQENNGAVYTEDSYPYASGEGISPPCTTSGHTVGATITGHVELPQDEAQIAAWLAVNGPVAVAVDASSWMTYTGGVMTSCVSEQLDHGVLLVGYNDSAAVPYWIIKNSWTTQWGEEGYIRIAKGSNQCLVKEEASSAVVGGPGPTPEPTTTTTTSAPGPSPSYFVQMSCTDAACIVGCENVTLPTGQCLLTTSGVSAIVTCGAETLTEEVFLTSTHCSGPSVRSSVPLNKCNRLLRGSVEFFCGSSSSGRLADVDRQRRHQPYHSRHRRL
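15 min RT preincubation of 1.5 nM cruzain with compound, then 2 uM Z-FR-AMC added; kinetic AMC fluorescence, 60 s delta. Triton X-100 0.01%, pH 5.5.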
RE007 growth inh: qHTS Assay for Inhibitors of the HIV-1 protein Vpr; S. pombe RE007 Vpr strain, BacTiter-Glo ATP luminescence, 24 h; control for the full effect not named in the record; 0.21% of 360,000 active; AID 651644, 2012; Potency, µM (top dose mostly 92.2 µM), for the others: at the highest dose activity change, negative = less growth; active = well fitted falling curve with a large enough effect; inconclusive = small, poorly fitted or top-dose-only effect; inactive = no such curve, though single readings can be large or run the other way;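 also: % is scaled to controls: 0 for no effect and ±100 for the full control effect; nearly all actives have a fitted effect of over 50% in size; the assay follows cell death caused by Vpr and the record does not say whether a fall means rescue or toxicity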
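Fission yeast strain RE007, carrying one chromosomally integrated HIV-1 vpr copy, was seeded at OD 0.01 in PMG+AL medium with 23 nL pinned compound. After 24 h at 30 °C and 99% humidity, viability was read by BacTiter-Glo luminescence.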
Marburg entry inh: qHTS for inhibitors of binding or entry into cells for Marburg Virus; Marburg virus pseudotyped entry inhibition, cell reporter; control for the full effect not named in the record; about a third of the inactives were read at about 46 µM; AID 540276, 2011; 1.8% of 300,000 active; Potency, µM (top dose mostly 37.8 µM), without a hit: top-dose activity change, negative = inhibition, usual class: inhibitors; active = well fitted inhibition curve with a large enough effect; inconclusive = small, poorly fitted or top-dose-only effect, or effect the other way; inactive = flat fitted curve, though single readings scatter; tested in HEK293 cells; about a fifth of its hits are not listed in these tables; also: % is scaled to controls: 0 for no effect and ±100 for the full control effect; luciferase read-out
StopGo reporter: High Throughput Screening for Foot and Mouth Disease Virus Antivirals | 1.2% of 410,000 active | human cells with a luciferase reporter of 2A StopGo recoding; control for the full effect not named in the record | Potency, µM (titrated, usually from 57.9 µM), inactives show at the top dose signal change, negative = less light; active = well fitted falling curve with a large enough effect; inconclusive = small, poorly fitted or top-dose-only effect; inactive = no such curve, though single readings can be large or run the other way; tested in HEK293T cells; also: % is scaled to controls: 0 for no effect and ±100 for the full control effect; nearly all actives have a fitted effect of over 45% in size; luciferase light after 4 h
SARS PLpro yeast: qHTS of Yeast-based Assay for SARS-CoV PLP | S. cerevisiae expressing SARS-CoV PLpro, growth rescue; control for the full effect not named in the record | Potency, µM (doses to about 32.9 µM), for inactives: at the highest dose activity, positive = growth rescue | 0.19% of 330,000 active | AID 485353, 2010; active means well fitted rising curve with a large enough effect; inconclusive means small, poorly fitted or top-dose-only effect; inactive means no such curve, though single readings can be large or run the other way; also: 0% is about no effect; nearly all actives have a fitted effect of over 55% in size; growth read by luminescence after 48 h
LASV entry inh: qHTS for Inhibitors of binding or entry into cells for Lassa Virus; Lassa virus pseudotype entry inhibition, cell reporter; control for the full effect not named in the record; Potency, µM (top dose mostly 37.9 µM), without a hit: at the top dose activity change, negative = inhibition, usual class: inhibitors; 1.2% of 300,000 active; AID 540256, 2011; active means well fitted inhibition curve with a large enough effect; inconclusive means small, poorly fitted or top-dose-only effect, or effect the other way; inactive means flat fitted curve, though single readings scatter; tested in HEK293 cells; also: % is scaled to controls: 0 for no effect and ±100 for the full control effect; nearly all actives have a fitted effect of over 50% in size; luciferase read-out
Cruzain noTriton: qHTS Assay for Promiscuous and Specific Inhibitors of Cruzain (without detergent); Cruzipain (Trypanosoma cruzi), P25779; purified cruzain, Z-FR-AMC fluorescence, no detergent; Potency, µM, without a hit: max response, negative = inhibition, actives largely listed as inhibitors; 2.3% of 200,000 active; AID 1476, 2009;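 also: plate controls were enzyme without inhibitor for no effect and buffer without enzyme for full effect; nearly all actives have a fitted effect of over 40% in size; top concentration of the series not given in the record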
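Purified cruzain at 1.5 nM, pre-incubated 15 min with compound at room temperature in 100 mM sodium acetate pH 5.5, 5 mM DTT, 0.00005% Triton X-100. Reaction started with 2 uM Z-FR-AMC; AMC fluorescence increase over 60 s gives rate.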
NS1 function inh: qHTS Assay for Inhibitors of Influenza NS1 Protein Function | 0.4% of 270,000 active | S. cerevisiae slowed by influenza A NS1, growth recovery by OD600 | Potency, µM (top dose mostly 46.1 µM), without a hit: at the top dose activity, positive = more growth; active means well fitted rising curve with a large enough effect; inconclusive means small, poorly fitted or top-dose-only effect; inactive means no such curve, though single readings can be large or run the other way; also: nearly all actives have a fitted effect of over 50% in size
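Compounds were scored for reversing the slow growth caused by influenza A NS1 in S. cerevisiae, measured by optical density at 600 nm. Assay medium contained 2% galactose at pH 6.0; NS1-free yeast of the same strain were the positive control.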
* = called active by the depositor; u = inconclusive; x = not tested or not shown; & = joins results of further samples; [ ] = dose if it differs, or a comment. Unless noted, calls follow the shape of the dose curve; as a rule, active = well fitted curve in the direction sought with a large enough effect; inconclusive = small, poorly fitted or top-dose-only effect, or another doubt; inactive = no such curve, though single readings can be large; an effect the other way counts as inactive or inconclusive. Potency is read from the fitted curve at half-maximal effect. Outcome played no part in choosing rows. Share with any hit: about 4.7%.

entry | compound | StopGo reporter | Cruzain Triton | RE007 growth inh | Marburg entry inh
1 | CC(=O)N1CCc2c(sc3c2c(=O)n(-c2ccccc2C)c(=O)n3Cc2cccc(F)c2)C1 | 22% | -6.4% | x | 7%[46.1 µM]
2 | O=C(CCCCn1c(=O)c2ccccc2n(Cc2ccc(F)cc2Cl)c1=O)NCc1ccco1 | u | -7.1% | -7% | u
3 | O=C1CC(c2ccc(F)cc2)Cc2nc(N3CCN(c4ccccc4)CC3)ncc21 (centres undefined) | u | -18% | 5% | 15%
4 | Cc1nc(C)n(C)c(=O)c1-c1ccccc1 | 5% | x | -4% | u
5 | CCOc1ccc(NC(=O)c2ccc(NC(=O)COC(=O)Cc3ccc(OC)cc3)cc2)cc1 | 44%[activator] | x | -11% | -3%[46.1 µM]
6 | COCC(C)NC(=O)c1cc(-c2ccc(O)cc2)on1 (centres undefined) | -4% | 1.5% | 6% | x
7 | Cc1ccc(CN(Cc2ccco2)c2cnc(S(C)(=O)=O)nc2C(=O)Nc2ccc(Br)cc2)o1 | -8% | -3.2% | x | u
8 | O=C(C1CCN(S(=O)(=O)c2cccc([N+](=O)[O-])c2)CC1)N1CCOCC1 | -17% | x | -25% | u
9 | O=C(NCC(c1cccs1)N1CCc2ccccc21)c1ccccc1 (centres undefined) | -4% | x | -1% | 9%
10 | CCn1c(C)c(C)c2cc(C(=O)N3CCN(c4ccccc4)CC3)ccc21 | -6%&-8% | -7.2% | 4% | -33%&-33%[46.1 µM]
11 | C1CCCCCC(=NNc2nn[nH]n2)CCCCC1 | -11% | x | -17% | -2%[46.1 µM]
12 | COC(=O)C(O)(c1ccc(N=Cc2ccccc2O)c(C)c1)C(F)(F)F (centres undefined) | 8% | 2.6% | 6% | 15%
13 | Cc1ccsc1/C=N/n1c(=S)[nH]nc(C)c1=O | -5% | -4.9% | 14% | -27%
14 | COC(=O)c1cc2occc2n1Cc1ccc(Cl)cc1 | -13% | -6.0% | -7% | -6%
15 | CC(C(=O)N1CCN(Cc2ccccc2)CC1)c1ccc([N+](=O)[O-])cc1 (centres undefined) | -17% | x | -3% | x

entry | LASV entry inh | NS1 function inh | Cruzain noTriton | SARS PLpro yeast
1 | x | x | u | x
2 | u | 6% | 5% | 4%
3 | -1% | 0% | u | 3%
4 | 4% | 2% | x | 2%
5 | 1% | 9% | x | 1%
6 | x | -33% | 4% | u
7 | 8%[46.1 µM] | x | -6% | x
8 | 0% | 2% | x | 1%
9 | -20% | x | x | 7%
10 | 0%&-1%[46.1 µM] | -40% | -6% | -9%
11 | 9% | 5% | x | 1%
12 | -6% | 7% | -10% | -1%
13 | 17% | 18% | -6% | 16%
14 | u | -2% | -3% | -21%
15 | x | -4% | x | 0%

Remaining list, next part:
entry | compound | StopGo reporter | Cruzain Triton | RE007 growth inh | Marburg entry inh
16 | O=C(CSc1ncccn1)NCc1ccc(Cl)cc1 | 0% | x | -5% | 30%
17 | COC(=O)N/N=C\c1c(C)nn(-c2ccccc2)c1Cl | 48%[activator] | -1.9% | 18% | -20%
18 | CC1C/C(=N\NC(=S)NC(C)C)CC(C)(C)C1 (centres undefined) | -6% | -2.1% | -14% | -22%[46.1 µM]
19 | FC(F)(F)c1ccccc1-n1ccnc1 | -23% | -2.6%&4.7%&3.5% | -10% | u
20 | NC(=O)c1oc2ccc(Cl)cc2c1NC(=O)CN1CCOCC1 | u | 3.7% | -18% | -26%
21 | COc1cc(C(=S)N2CCOCC2)cc(OC)c1OC(=O)c1cccc(C)c1 | -21% | x | 3% | x
22 | O=C(Nc1ccc(-c2csc(Nc3ccc(Cl)cc3)n2)cc1)c1cccc(C(F)(F)F)c1 | 20µM* | x | -7% | 0%
23 | COc1ccc(S(=O)(=O)N(C)CC(=O)NC2CC2)cc1 | x | 7.1% | -4% | 1%
24 | O=C(CC1(O)C(=O)N(Cc2ccccc2)c2ccc(Br)cc21)c1ccccc1 (centres undefined) | 6% | -6.7% | x | -28%[46.1 µM]
25 | COc1ccc(-c2nc3c(c(=O)[nH]c(=O)n3Cc3ccccc3)n2C)cc1 | u | 1.5% | 16% | 10%
26 | CCCCCn1c(N)c(-c2nc3ccccc3o2)c2c([N+](=O)[O-])nn(C)c(=O)c21 | -2% | -7.3% | 1% | 12%
27 | COc1cc(NC(=O)c2cccnc2)c(Cl)cc1NC(=O)c1ccccc1 | 0% | x | 8% | -23%
28 | Fc1ccccc1Nc1nc2c(s1)CCc1ccccc1-2 | x | -5.0% | x | u
29 | CCC(C(=O)Nc1cnccn1)c1ccccc1 (centres undefined) | 2% | -1.1% | 2% | -5%
30 | COc1ccc(/C=C\C(=O)NCC(=O)N/N=C/c2ccc(O)cc2O)cc1 | -5% | x | 21% | x
31 | COc1ccc(C2Nc3ccccc3C(=O)N2c2ccc(Cl)cc2)cc1Cn1cc([N+](=O)[O-])cn1 (centres undefined) | 100µM* | -1.4% | -4% | -20%
32 | O=C(NCc1cccnc1)/C(=C/c1ccc(Cl)cc1)NC(=O)c1ccccc1 | -2% | x | 4% | 0%[46.1 µM]
33 | COc1ccc2c(c1)c(=O)c(S(=O)(=O)c1ccc(Cl)cc1)cn2C | 41%[activator] | -4.8% | x | 2%[46.1 µM]

entry | LASV entry inh | NS1 function inh | Cruzain noTriton | SARS PLpro yeast
16 | 0% | -1% | x | -1%
17 | -15% | 3% | -6% | -19%
18 | -23% | -4% | 5% | 29%
19 | u | -12% | u | x
20 | -1% | -7% | 7% | 2%
21 | x | 20% | x | 8%
22 | x | 11% | x | 1%
23 | -2% | 5% | -1% | 1%
24 | -25%[46.1 µM] | x | 7% | x
25 | -18% | 7% | -9% | -2%
26 | 3% | -4% | u | -3%
27 | -13% | 6% | x | 0%
28 | u | -5% | -4% | -15%
29 | 11% | -8% | 12% | 9%
30 | x | u | x | 0%
31 | u | u | u | 0%
32 | 17% | -5% | x | 5%
33 | 2%[46.1 µM] | x | -7% | x

Compound profiles, from the list above:
COc1ccc2c(c1)c(=O)c(S(=O)(=O)c1ccc(Cl)cc1)cn2C is listed with StopGo reporter: 41%[activator]; Cruzain Triton: -4.8%; RE007 growth inh: x; Marburg entry inh: 2%[46.1 µM]; LASV entry inh: 2%[46.1 µM]; NS1 function inh: x; Cruzain noTriton: -7%; SARS PLpro yeast: x
O=C(NCc1cccnc1)/C(=C/c1ccc(Cl)cc1)NC(=O)c1ccccc1 is listed with StopGo reporter: -2%; Cruzain Triton: x; RE007 growth inh: 4%; Marburg entry inh: 0%[46.1 µM]; LASV entry inh: 17%; NS1 function inh: -5%; Cruzain noTriton: x; SARS PLpro yeast: 5%
NC(=O)c1oc2ccc(Cl)cc2c1NC(=O)CN1CCOCC1 is listed with StopGo reporter: u; Cruzain Triton: 3.7%; RE007 growth inh: -18%; Marburg entry inh: -26%; LASV entry inh: -1%; NS1 function inh: -7%; Cruzain noTriton: 7%; SARS PLpro yeast: 2%
